Menin-MLL FL inh: menin-MLL binding inhibition, fluorescein peptide | FP activity change, % at 61.4 µM | Fluorescence polarization, fluorescein-MLL peptide displacement from menin | 290,000 tested, under 10 active; inconclusive = falling polarisation curve, or a change in total fluorescence; inactive = total fluorescence flat and polarisation flat or rising; no compound was filed as active; the % refers to the polarisation; negative = inhibition;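 further: % of control where 0% means no effect; inhibitors lower the polarisation; unlabelled MLL peptide was the positive control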
An asterisk follows results filed as active; ? = inconclusive; & = joins results of further samples; [ ] = dose if it differs, or a comment. Some of the compounds tested; rates above refer to the full screens.

SMILES	Menin-MLL FL inh
CC(=O)OC1CCC2(C)C3CC(=O)C4(C)C(CC5OC6(CCC(C)CO6)C(C)C54)C3CC[C@H]2C1 (stereo not given in full)	-2.5
COC(=O)[C@H](COC(C)(C)C)NC(=O)O[C@@H]1Cc2cc(Br)ccc2O[C@H]1c1cccc(OC)c1	-2.7
COc1ccc(CNc2cc(-c3cccnc3)ncn2)c(OC)c1	13
CS(=O)(=O)N1CCC2(CC1)CN(C(c1ccccc1)c1ccccc1)C2	-4.5
CN(Cc1cc(Br)cc(Br)c1N)C1CCCCC1	-5.2
Cc1nnc2ccc(-c3ccc(NC(=O)c4ccc(Cl)nc4)cc3)nn12	-1.9
O=C1NN(c2ccc(F)cc2)C(=O)/C1=C\c1cnn(-c2ccccc2)c1	-1.1
CCCC[C@H](CC)CN1CN(C[C@@H](CC)CCCC)CC(C)(N)C1	-0.3[24.8 µM]
COC(=O)c1cc(CNC(=O)c2cccc(Cl)c2Cl)ccc1OC	3.7
CCCC[C@@H]1C[C@H]1C(NC(=O)c1ccco1)c1ccc(C(=O)OC)cc1 (stereo not given in full)	16

Next section (3 carried over from the part before).
SMILES	Menin-MLL FL inh
CCCC[C@H](CC)CN1CN(C[C@@H](CC)CCCC)CC(C)(N)C1	-0.3[24.8 µM]
COC(=O)c1cc(CNC(=O)c2cccc(Cl)c2Cl)ccc1OC	3.7
CCCC[C@@H]1C[C@H]1C(NC(=O)c1ccco1)c1ccc(C(=O)OC)cc1 (stereo not given in full)	16
O=C(NC1CC2CCCC(C1)N2C1CC1)NC12CC3CC(CC(C3)C1)C2 (stereo not given)	4.4
CNc1nc(-c2ccccc2C(F)(F)F)nc2ccccc12	0.3
CCNc1ncc2nc(-c3cc(F)cc(F)c3)c(=O)n(CCC#N)c2n1	?
CN1CCN(c2ncc3ncc(=O)n(CCC#N)c3n2)CC1	0.1
FC(F)(F)c1ccccc1-c1ccc2ncnc(N3CCOCC3)c2c1	-1.2
C#C[C@]1(O)CC[C@@H]2[C@H]3CCc4cc(OC)ccc4[C@@H]3CC[C@@]21C	-0.4[24.8 µM]
COc1ccc(Oc2ncc3nc(C)c(=O)n(Cc4ccc(F)cc4)c3n2)cc1	4.2
CO[C@H]1COC(=O)C/C=C\[C@H](C)[C@@H](NS(=O)(=O)c2ccc(C)cc2)COC(=O)CCC[C@@H]1C	-8.8[11.7 µM]
COc1ccc(C(=O)N2CCC[C@@]3(CCN(CC(C)C)C3)C2)cc1	1.6
O=C(Nc1nc(-c2ccccn2)cs1)c1ccc(S(=O)(=O)N2CCCCC2)cc1	1.3

4 of these compounds, reformatted:
molecule | Menin-MLL FL inh
COC(=O)c1cc(CNC(=O)c2cccc(Cl)c2Cl)ccc1OC | 3.7
O=C(NC1CC2CCCC(C1)N2C1CC1)NC12CC3CC(CC(C3)C1)C2 (stereo not given) | 4.4
CCCC[C@H](CC)CN1CN(C[C@@H](CC)CCCC)CC(C)(N)C1 | -0.3[24.8 µM]
CNc1nc(-c2ccccc2C(F)(F)F)nc2ccccc12 | 0.3

Six entries from above, set out differently.
mol,Menin-MLL FL inh
O=C(NC1CC2CCCC(C1)N2C1CC1)NC12CC3CC(CC(C3)C1)C2 (stereo not given),4.4
CNc1nc(-c2ccccc2C(F)(F)F)nc2ccccc12,0.3
CCNc1ncc2nc(-c3cc(F)cc(F)c3)c(=O)n(CCC#N)c2n1,?
CN1CCN(c2ncc3ncc(=O)n(CCC#N)c3n2)CC1,0.1
FC(F)(F)c1ccccc1-c1ccc2ncnc(N3CCOCC3)c2c1,-1.2
C#C[C@]1(O)CC[C@@H]2[C@H]3CCc4cc(OC)ccc4[C@@H]3CC[C@@]21C,-0.4[24.8 µM]

(next part)
SMILES	Menin-MLL FL inh
CC(NC(=O)c1cc(-c2ccccc2)nc2ccccc12)C1CCCO1 (stereo not given)	?
COc1ccc(N2C=C3C(=O)C(C)(OC(=O)C4CCCC4)C(=O)C=C3C=C2c2ccsc2)cc1 (stereo not given)	6.9[11.7 µM]
CC(=O)NCC(=O)N[C@H](CCC(=O)O)C(=O)O	?
O=C1CCCC2=C1C(c1ccccc1)C1=C(CCCC1=O)O2	1.0
CCc1ccc(NC(=S)NNC(=O)c2ccccc2OC(F)F)cc1	4.0
COc1ccc(COC(=O)N/N=C2/C[C@@H](O)[C@@H](O)[C@@H]3[C@@H]4C(=O)N(c5cccc(Oc6ccccc6)c5)C(=O)[C@H]4CC[C@@H]23)cc1	2.2[11.7 µM]
COc1ccc2c(c1)OCC(Cc1ccc(O)c(OC)c1)C2=O (stereo not given)	6.0
O=c1c(CCc2ccccc2)nc2cnc(N3CCNCC3)nc2n1Cc1cccs1	15
CO/N=C(/C)CCC(=O)OC[C@@H]1O[C@H](c2ccccc2)C=C[C@@H]1Oc1ccc(OC)cc1	-0.4[11.7 µM]
CCc1ccc(Nc2n[n+](-c3ccccc3)c(/C=C/c3ccccc3)s2)cc1	-2.2
O=C(Nc1cccc(F)c1)N1CC[C@@]2(CCCN(S(=O)(=O)c3ccccc3)C2)C1	3.8
C[C@@H](c1ccccc1)N1C(=O)[C@H]2[C@H]3[C@H](O)[C@H](O)C/C(=N/OC[C@@H](O)COCc4ccco4)[C@H]3CC[C@@H]2C1=O	-0.6[11.7 µM]
Cc1ccc(O)cc1	1.6
C=C1CC[C@H](O)C/C1=C/C=C1\CCC[C@]2(C)[C@@H]([C@H](C)CC[C@@H](O)C(C)(C)O)CC[C@@H]12	4.1&3.7
CCc1cccc2nc3c(c([Si](C)(C)C)c12)Cn1c-3cccc1=O	-0.5
CC(C)C(=O)N[C@H]1CCCN1C(=O)/C=C\c1ccccc1	-4.7[11.7 µM]
Cn1c(=O)c(-c2ccc(Cl)cc2)nc2cnc(N3CCOCC3)nc21	-14
Clc1cccc(-c2nnc3sc(-c4ccc5c(c4)OCO5)nn23)c1	1.9
O=C(OC1CCCCC1)c1ccc2c(c1)C1C=CCC1C(C(=O)O)N2 (stereo not given)	10
O=C(O)[C@H]1CCCN(CCC=C(c2ccccc2)c2ccccc2)C1	-28
Cn1cccc1C(=O)N1CCC[C@@]2(CCN(Cc3ccc(C#N)cc3)C2)C1	-3.4
CS(=O)(=O)N1CCC2(CCCN(C(=O)Nc3cccc(F)c3)C2)CC1	-4.9
COc1ccc(C[C@@](C)(N)C(=O)O)cc1OC	-0.3[24.8 µM]
CC1(C)CC2/C(CO)=C/C=C/[C@](C)(O)CC[C@]21O (stereo not given in full)	-1.5
Cc1nc(NC2=NCN(C3CCCCC3C)CN2)nc2ccccc12 (stereo not given)	-0.3
CC(C)[C@@H](CC(=O)N[C@@H]1CCCC[C@H]1C(=O)N[C@H](CC(=O)N[C@@H](CCC(=O)O)CC(=O)O)Cc1ccccc1)NC(=O)C[C@H](Cc1ccccc1)NC(=O)[C@@H]1CNCC[C@H]1N	-0.1
C[C@H]1OC(OC2C(O)[C@@H](O)C(OC3C(O)[C@@H](O)C(O)O[C@@H]3CO)O[C@@H]2CO)[C@H](O)C(O)C1N[C@H]1C=C(CO)[C@@H](O)[C@H](O)C1O (stereo not given in full)	-0.4
ONc1cccnc1-n1nc(C(F)(F)F)cc1C(F)(F)F	?
CC(CCC(=O)O)C1CCC2C3CC[C@H]4CC(O)CC[C@@]4(C)C3CC[C@@]12C (stereo not given in full)	-2.4
Cc1nc(N2CCOCC2)c2nc(-c3ccccc3)n(CCN3CCCCC3)c2n1	1.1
CCc1nnc(NC(=O)CSc2ccc(-c3ccc(F)cc3)nn2)s1	-0.6
Cc1cccc(C)c1Nc1oc(-c2ccccc2)nc1-c1ccccc1F	3.5
COc1ccc(C([O-])=Nc2ccc[n+](-c3nc4ccccc4nc3NS(=O)(=O)c3ccccc3)c2)cc1	?
Cc1ccc(C(=O)C2=C(O)C(=O)N(CCN3CCOCC3)C2c2ccccn2)o1 (stereo not given)	-12
COc1ccc(/C=C/c2cc(OC)cc(=O)o2)cc1	0.1
CCN(CC)C(=O)C1=C(C)NC(=O)NC1c1ccccc1F (stereo not given)	2.5
O=C(O)c1ccccc1-c1c2ccc(=O)cc-2oc2cc(O)ccc12	?
Nc1nc2c(nc(Sc3ccc(Cl)cc3)n2C2OC(CO)C(O)C2O)c(=O)[nH]1 (stereo not given)	2.2
Cc1cnc(CNc2ccnc(-c3ccccc3Cl)n2)cn1	-0.7
CCOC(=O)c1c2ccc(OCC(=O)N/N=C/c3ccc(Cl)cc3)cc2n2ccccc12	0.8
CCCn1c(C)nc2c(NC(C)CN(C)C)nc(C)nc21 (stereo not given)	-1.0
O=c1c2c(nc3nc(NCc4ccccc4Cl)[nH]n13)CCC2	0.6
Cc1ccc(CNc2ncnc3ccc(-c4c(C)noc4C)cc23)cc1	-1.4
N#Cc1cccc(NC(=O)N2CC[C@@]3(CCCN(C(=O)c4cccc(F)c4)C3)C2)c1	-2.4
COc1cc2c(cc1OC)-c1c(oc3cc(O)cc(O)c3c1=O)CO2	8.9
O=C(/C=C/c1ccc(/C=C/C(=O)Nc2ccc(C3=NCCN3)cc2)cc1)Nc1ccc(C2=NCCN2)cc1	-1.9
c1nc(NC2CC2)c2cc(-c3ccoc3)ccc2n1	?
OC[C@H]1OC(O)(CN2CCOCC2)[C@H](O)[C@@H]1O (stereo not given in full)	-0.8
CCCCCCCC1=CC2=CC(=O)C(C)(OC(C)=O)C(=O)C2=CN1CCc1ccccc1 (stereo not given)	0.4[11.7 µM]
COc1ccc(CNc2nc3c(c(C(F)(F)F)n2)CCCCC3)cc1	3.7
Next part.
SMILES	Menin-MLL FL inh
CCOc1ccccc1Nc1nc(-c2sc(NC(=O)c3ccc([N+](=O)[O-])cc3)nc2C)cs1	-1.2
CCCN1[C@H](C(=O)OC)C[C@@]2(O)[C@@H](O)[C@@H](O)[C@@H](O)C[C@@H]12	0.2
COC(=O)CC1c2ccccc2C=C(C)N1C(=O)OC (stereo not given)	-5.0
COc1ccc(CCNC(=O)C(NS(=O)(=O)c2ccc3c(c2)CCN3C(C)=O)C(C)C)cc1OC (stereo not given)	1.7
CCOC(=O)/C(C#N)=C1\SS/C(=C(/C#N)C(=O)OCC)S1	?
COc1ccc2c(c1)O[C@@H](c1ccc3c(c1)OCO3)[C@H](OC(=O)Nc1ccc(C)c(Br)c1)C2=O	-0.9
CN(C)c1ccc(-c2cncnc2Nc2ccccc2)cc1	-8.3
COc1ccc(Nc2cc(C(=O)NCc3cccnc3)c3ccccc3n2)c(OC)c1	0.8
Cc1ccccc1Nc1nnc(SCc2nc3ccccc3c(=O)[nH]2)s1	-1.6
N#Cc1cccc(NC(=O)N2CCCC3(CCN(C(=O)c4cnccn4)CC3)C2)c1	-3.2
C=CC[C@@H]1C=C[C@H](O/N=C(\C)CCN2CCc3nc(-c4ccccc4)c(-c4ccccc4)cc3C2)[C@H](CO)O1	-2.6[11.7 µM]
COC(=O)c1ccc(C(NC(=O)OCc2ccccc2)/C(C)=C/[C@@H](C)C(=O)NCc2cc(F)cc(F)c2)cc1 (stereo not given in full)	-2.2
CN(C)c1ncc2ncc(=O)n(Cc3cccs3)c2n1	-0.3
COc1ccc(CNc2ncncc2-c2ccc3c(c2)OCO3)c(OC)c1	1.0
O=C(O[C@@H]1Cc2c(O)cc(O)cc2O[C@@H]1c1cc(O)c(O)c(O)c1)c1cc(O)c(O)c(O)c1	19
CC1=C(C(=O)Nc2ccccc2)C(c2ccco2)C(C#N)=C(SCc2ccccc2)N1 (stereo not given)	3.7
CCCCCCCC1=CC2=C(Cl)C(=O)C(C)(OC(C)=O)C(=O)C2=CO1 (stereo not given)	?
CCCCC[C@H](O)/C=C/[C@@H]1[C@@H](C/C=C\CCCC(=O)O)[C@@H](O)C[C@@H]1O	-4.8
CN1CCN(C(CC(=O)Nc2cccc(O)c2)C(=O)O)CC1 (stereo not given)	2.2
CC(=O)NCCNc1nc(-c2ccccc2C)nc2ccccc12	0.0
CO[C@]1(C)C[C@H]2O[C@]1(C)n1c3ccccc3c3c4c(c5c6ccccc6n2c5c31)C(=O)N(C)C4	-2.0
CCCCC/C=C\C/C=C\CCCCCCCCCC(=O)O	0.1
COc1ccc(COCC(O)CN2CCCC(C(F)(F)F)C2)cc1 (stereo not given)	-0.2
O=C1/C(=C/c2ccccc2)Oc2ccccc21	-1.5[11.7 µM]
CC1(C)S[C@H]2[C@@H](NC(=O)C(N)c3ccccc3)C(=O)N2[C@H]1C(=O)O (stereo not given in full)	?
COC(=O)C(C(C)=O)C(NC(=O)NCc1ccccc1)c1ccccc1 (stereo not given)	1.1[11.7 µM]
COc1ccc(-c2coc3ccc(OC4OC(COC(C)=O)C(OC(C)=O)C(OC(C)=O)C4OC(C)=O)cc3c2=O)cc1 (stereo not given)	?
CCCCCCCCCCCCCCCCOP(=O)([O-])OCC[N+](C)(C)C	0.0
Cc1cccc([C@@H]2CN(C)CCc3c2cc(O)c(O)c3Cl)c1	?
CCc1ccc2c(c1)N(C[C@H](C)CN(C)C)c1ccccc1S2	-0.1
CCOc1cc(N2CCOCC2)c(OCC)cc1NC(=O)COc1ccc2ccc(=O)oc2c1	4.6
NCCC[C@@H](CC(=O)N[C@@H]1CCCC[C@H]1C(=O)N[C@H](CC(=O)N[C@@H](CCC(=O)O)CC(=O)O)Cc1ccccc1)NC(=O)C[C@H](CO)NC(=O)[C@@H]1CCCC[C@H]1N	0.4
COc1ccc(-c2nsc3c(N4CCN(S(=O)(=O)c5ccccc5)CC4)ncnc23)cc1	0.3
CC(C)CCOC(=O)c1ccc(N(C)C)cc1	1.5
NCCC[C@@H](CC(=O)N[C@@H]1CCNC[C@H]1C(=O)N[C@H](CC(=O)N[C@@H](CCC(=O)O)CC(=O)O)Cc1ccccc1)NC(=O)C[C@H](CO)NC(=O)[C@@H]1CCCC[C@H]1N	-5.7
COc1ccc2c(c1)O[C@@H](c1ccc3c(c1)OCO3)[C@H](OC(=O)Nc1cc(OC)c(OC)c(OC)c1)C2=O	0.4&-0.7
CCCCCCCCCCCCCCCCCCc1ccc(C(=O)/C=C\C(=O)O)cc1	5.6
Cc1cn([C@@H]2C[C@H](N=[N+]=N)[C@H](CO)O2)c(=O)[nH]c1=O	-2.6[24.8 µM]
Cc1cnc(CNc2ncncc2-c2ccoc2)cn1	?

Source: PubChem (National Center for Advancing Translational Sciences (NCATS))
